VDR inh: Inhibitors of the vitamin D receptor (VDR): qHTS. Vitamin D3 receptor (Homo sapiens), P11473. VDR-SRC2-3 peptide fluorescence polarization, 2 h. Potency, µM, without a hit: max response, negative = inhibition, actives largely listed as inhibitors. hit rate 0.93% among 400,000; active = well fitted inhibition curve with a large enough effect; inconclusive = small, poorly fitted or top-dose-only effect, or another doubt; inactive = no such curve, though single readings can be large or run the other way; note: series mostly up to about 120 µM
Target sequence (P11473 whole entry, looked up): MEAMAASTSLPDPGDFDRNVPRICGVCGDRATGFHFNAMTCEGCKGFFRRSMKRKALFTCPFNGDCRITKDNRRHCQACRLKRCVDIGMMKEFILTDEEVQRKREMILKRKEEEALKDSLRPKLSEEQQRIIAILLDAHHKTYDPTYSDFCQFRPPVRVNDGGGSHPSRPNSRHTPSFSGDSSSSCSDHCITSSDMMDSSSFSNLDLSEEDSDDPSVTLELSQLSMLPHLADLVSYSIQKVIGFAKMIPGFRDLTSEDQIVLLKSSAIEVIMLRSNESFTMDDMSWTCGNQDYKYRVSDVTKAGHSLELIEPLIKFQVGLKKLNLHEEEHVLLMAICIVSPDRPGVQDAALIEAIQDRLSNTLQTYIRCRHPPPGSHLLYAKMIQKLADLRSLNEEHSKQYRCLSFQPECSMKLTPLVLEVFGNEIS
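Signal is fluorescence polarization, reporting how far test compounds block the interaction of VDR with the SRC2-3 coregulator peptide after a 2 h room-temperature incubation.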
* marks the source's active call; other numbers are inactive results; ? = inconclusive; & = joins results of further samples; [ ] = dose if it differs, or a comment. % is set by controls: 0 for no effect and ±100 for the full control effect; potency is the fitted concentration of half-maximal effect. Some of the compounds tested (hit frequency here may not be typical).

VDR inh	compound
-8.2%	O=C(NNC(=O)c1nn(-c2ccc(F)cc2)ccc1=O)c1ccc(C(F)(F)F)cc1
-1.8%	O=C(Nc1nccs1)C1C2CC3OC(=O)C1C3C2 (centres undefined)
14.9%	Cc1ccc(S(=O)(=O)NCC(c2ccc(N(C)C)cc2)N2CCCC2)cc1 (centres undefined)
-2.4%	O=C(NCCc1ccc(F)cc1)Nc1ccccc1
-11.1%	Cc1c(NC(=O)Cn2nc(C(F)(F)F)c3c2CCCC3)c(=O)n(-c2ccccc2)n1C
5.7%	COC(=O)c1c(-c2c(Cl)cccc2Cl)noc1NC(=O)NN1CCCCC1
11.2%	COc1ccc(CCN(Cc2nc3ccccc3c(=O)[nH]2)C(=O)C2CC2)cc1
-10.6%	Cc1cc(=O)oc2cc(OCC(=O)Nc3ccc(F)cc3F)ccc12
-3.9%	COc1ccc(-n2nnc(-c3nc(-c4ccccc4C)no3)c2N)cc1Cl
0.8%	Cc1ccc(N(C(=O)c2csnn2)C(C(=O)NC2CCCCC2)c2ccncc2)cc1 (centres undefined)
12.9%	O=C(NCc1ccc2c(c1)OCO2)c1cc2ccccc2o1
1.7%	CCCC[n+]1ccn(-c2nc3ccccc3nc2[N-]S(=O)(=O)c2ccc(Cl)cc2)c1
-16.3%	COC(=O)c1cccc(NC(=O)c2cnn(C)c2)c1
-3.0%	CC(=O)Nc1cccc(NC(=O)CCCC2CCCCC2)c1
-7.0%	Cc1cccc(OCC(=O)NCCCNC(=O)c2ccncc2)c1
1.6%	Cc1ccc(NCc2n[nH]c(=S)n2-c2ccccc2)cc1Cl
5.1%	Cc1c(Cl)c(=O)oc2cc(OC(C)C)ccc12
15.0%	COCc1c(C(=O)OCC(=O)NCCN2C(=O)CSC2=O)oc2ccccc12
-6.0%	CCn1nnnc1NC(=O)c1cccc(OC)c1
?	CCCCCCCCN1[C@@H](CC(=O)OCC)c2ccc(C(F)(F)F)cc2S1(=O)=O
10.6%	CCc1ccccc1NC(=O)Nc1cc(C(=O)NCc2ccc(C)cc2)ccc1N1CCCC1
3.9%	COc1ccccc1Cn1cc(C(=O)c2ccc(C)cc2)c(=O)c2cc(C)ccc21
-10.9%	CC(=O)c1c(C)[nH]c(C(=O)NCc2ccccc2Cl)c1C
?	CCC(C)NC(=O)CS(=O)Cc1nc(-c2cccc(OC)c2)oc1C (centres undefined)
16.9%	CN(C)CCn1cnc2c1c(=O)n(C)c(=O)n2C
-4.2%	Cc1ccc(NC(=O)CS(=O)CC(=O)NC23CC4CC(CC(C4)C2)C3)cc1 (centres undefined)
1.7%	CN(C(=O)COC(=O)c1cc[n+]([O-])cc1)c1ccccc1
22.7%	O=C(NCCc1ccccc1)C(=S)N1CCCCC1
8.0%	COc1cc(NC(=O)C2CCCN(c3ncccn3)C2)cc(OC)c1 (centres undefined)
15.0%	CCn1ncc(Br)c1C(=O)Nc1cccc(C(C)=O)c1
-9.6%	Cc1cc(C(=O)N2CCN(C(c3ccccc3)c3ccccc3)CC2)no1
-5.3%	O=C(NCc1ccco1)c1ccc(S(=O)(=O)N2CCCCCC2)cc1
8.6%	CCCCOc1ccc(C(=O)OCC(=O)NC2CCCC2)cc1
-10.8%	COc1ccc(CCNC(=O)CCCCCN2C(=O)c3ccccc3C2=O)cc1OC
0.3%&4.2%	CCOc1ccc(Cn2c(=O)sc3ccccc32)cc1
17.4%	O=C(CNS(=O)(=O)c1ccccc1)OCC(=O)c1ccc(F)cc1
13.1%&-7.5%	CCCn1c(/C=C/c2ccccc2)nc2ccccc21
8.7%	CC(Oc1ccccc1)C(=O)N1CCc2ccccc2C1 (centres undefined)
7.6%	O=C(CNCc1ccc(Cl)cc1)Nc1ccc(C(=O)N2CCCCC2)cc1
-8.4%	O=C(CN1C(=O)C2CC=CCC2C1=O)Nc1nc(-c2ccc(F)c(F)c2)cs1 (centres undefined)

Some of the entries above, reformatted.
SMILES | VDR inh
CCc1ccccc1NC(=O)Nc1cc(C(=O)NCc2ccc(C)cc2)ccc1N1CCCC1 | 10.6%
COc1ccccc1Cn1cc(C(=O)c2ccc(C)cc2)c(=O)c2cc(C)ccc21 | 3.9%
CC(=O)c1c(C)[nH]c(C(=O)NCc2ccccc2Cl)c1C | -10.9%
CCC(C)NC(=O)CS(=O)Cc1nc(-c2cccc(OC)c2)oc1C (centres undefined) | ?
CN(C)CCn1cnc2c1c(=O)n(C)c(=O)n2C | 16.9%
Cc1ccc(NC(=O)CS(=O)CC(=O)NC23CC4CC(CC(C4)C2)C3)cc1 (centres undefined) | -4.2%
CN(C(=O)COC(=O)c1cc[n+]([O-])cc1)c1ccccc1 | 1.7%
O=C(NCCc1ccccc1)C(=S)N1CCCCC1 | 22.7%
COc1cc(NC(=O)C2CCCN(c3ncccn3)C2)cc(OC)c1 (centres undefined) | 8.0%
CCn1ncc(Br)c1C(=O)Nc1cccc(C(C)=O)c1 | 15.0%
Cc1cc(C(=O)N2CCN(C(c3ccccc3)c3ccccc3)CC2)no1 | -9.6%
O=C(NCc1ccco1)c1ccc(S(=O)(=O)N2CCCCCC2)cc1 | -5.3%
CCCCOc1ccc(C(=O)OCC(=O)NC2CCCC2)cc1 | 8.6%
COc1ccc(CCNC(=O)CCCCCN2C(=O)c3ccccc3C2=O)cc1OC | -10.8%
CCOc1ccc(Cn2c(=O)sc3ccccc32)cc1 | 0.3%&4.2%
O=C(CNS(=O)(=O)c1ccccc1)OCC(=O)c1ccc(F)cc1 | 17.4%
CCCn1c(/C=C/c2ccccc2)nc2ccccc21 | 13.1%&-7.5%

Remaining list, next part:
VDR inh	compound
-6.6%	CC(=O)N(Cc1cc(=O)[nH]c2ccccc12)c1cccc(C)c1
-7.7%	CNC(=S)NCCc1ccccc1
15.5%	Cc1cc(C(=O)NNC(=O)c2ccc(Cl)cc2)no1
-1.6%	CC(=O)Nc1ccc(SCC(=O)Nc2cc(C(C)(C)C)nn2-c2ccccc2)cc1
?	Cc1ccc(C(=O)N2CCCC(N3CCN(c4ccccc4C)CC3)C2)c(=O)[nH]1 (centres undefined)
-10.9%	CCN(CC)CCN(C(=O)CCS(=O)(=O)c1ccccc1)c1nc2cc3c(cc2s1)OCO3
?	CCn1c(Oc2ccccc2)nc2c1c(=O)n(C)c(=O)n2C
10.5%	CC(C)C(NC(=O)c1ccccc1Br)c1ccccc1 (centres undefined)
-6.6%	COc1ccc(OC)c(/C=C2\S/C(=N/NC(=O)c3ccc4ccccc4c3)NC2=O)c1
4.8%&0.4%	Cn1nc(C(=O)NCc2ccccc2)c2c1-c1ccccc1S(=O)(=O)C2
10.1%	CCN(C(C)=O)c1nnc(CSc2nc3ccccc3s2)s1
12.9%	CCCCNC(=O)CNC(=S)N(CCCN1CCOCC1)Cc1cccs1
-3.0%	Fc1ccc(C(c2nnnn2Cc2cccs2)N2CCN(C3CCCC3)CC2)cc1 (centres undefined)
0.9%	O=C(COc1ccc(Br)cc1)Nc1ccccc1N1CCCC1
-9.7%&-2.5%	O=C(O)c1cc(-c2ccccc2)nc2ccccc12
-7.9%	O=C(CN(Cc1ccco1)S(=O)(=O)c1ccccc1)N/N=C/c1cccc(O)c1
5.6%	Cc1ccc(C)c(OCCn2cc(/C=C(/C#N)C(=O)NCC3CCCO3)c3ccccc32)c1 (centres undefined)
-16.1%	Cc1ccc(-c2csc(NC(=O)C3CSC4(C)CCC(=O)N34)n2)cc1 (centres undefined)
16.3%	Cc1cc(C(=O)COC(=O)c2ccc(O)cc2O)c(C)n1C(C)C
4.5%	CCOC(=O)CSc1nnc(-c2ccccc2)o1
12.2%	CC(C(=O)O)n1nc2ccccc2n1 (centres undefined)
6.7%	Cc1cccc(CNc2ncnc3ccc(-c4c(C)noc4C)cc23)c1
3.1%	COc1ccc(NC(=O)Cc2ccc(Cl)cc2Cl)cn1
-5.9%	O=C(c1cc(Br)c(Br)s1)N1CCN(c2ccccn2)CC1
?	CCn1c(CSc2nc3ccccc3[nH]2)nc2cc(C(=O)O)ccc21
2.6%	CN1CCN(C(=O)c2cc3sccc3n2CC(=O)c2ccccc2)CC1
-8.3%	CN(C(=O)C1CCN(S(=O)(=O)c2cccs2)CC1)C1CCCCC1
-2.8%	CCCCN1C(=O)C(=O)N(CC(=O)Nc2ccc(OC(F)(F)F)cc2)C1=O
-10.4%	CCOC(=O)N1CCN(C(=O)COC(=O)c2cccc(C)c2[N+](=O)[O-])CC1
2.8%	Nc1nc(SCC(=O)N2N=C3/C(=C/c4ccco4)CCCC3C2c2ccco2)n[nH]1 (centres undefined)
7.0%	O=C(CN1CCN(c2ccccc2F)CC1)NC(=O)NCc1ccco1
1.3%	COC(=O)NC(C(=O)OC)(C(=O)OC)c1ccccc1
16.0%	CC(C)Cc1[nH]c(=O)c(C#N)c2c1COC(C)(C)C2
-6.3%	CC(=O)c1ccc(NC(=O)CN2C(=O)NC(C)(C3CCCCC3)C2=O)cc1 (centres undefined)
-5.4%	CN(C)c1ccc(-c2noc(C3CCN(S(=O)(=O)c4ccc(C(=O)O)cc4)CC3)n2)cc1
-23.5%	COc1ccc(C(=O)Nc2ccncc2)cc1S(=O)(=O)N1CCOCC1
17.9%	COc1ccc(OC(=O)COc2cc(C)ccc2C)cc1
13.9%	CCC(C)(C(=O)NC1CCCCC1)N(Cc1cccs1)C(=O)Cc1cccs1 (centres undefined)
11.4%	CCOc1ccc(C(=O)NCC2CCCN2S(=O)(=O)c2cccs2)cc1 (centres undefined)
-0.4%	O=C(Nc1ccccn1)C1(c2cccs2)CCOCC1
15.7%	CC1Cc2cc(S(=O)(=O)N3CCC(C(=O)N4CCCCC4)CC3)ccc2N1C(=O)C1CC1 (centres undefined)
18.3%	COC(=O)c1cc(=O)n2c(-c3ccccc3)csc2n1
6.1%	Cc1ccc(NC(=O)CC2=NC(=O)C(CC(=O)Nc3ccccc3C)S2)cc1 (centres undefined)
-22.4%	COc1ccccc1C1/C(=C(\O)c2ccc3c(c2)OCCO3)C(=O)C(=O)N1Cc1cccnc1 (centres undefined)
7.2%	Cc1ccc(-n2nc(C(=O)N3CCC(C)CC3)c(=O)n(C)c2=O)cc1
2.8%	Cc1ccc(S(=O)(=O)N(C)CCCC(=O)N2CCOCC2)cc1
-10.6%	CCOc1ccc(NC(=O)CSc2nnc(C(C)C)n2CC)cc1
67.9%[activator]	Cc1cc(C)n(Cc2ccc(NC(=O)c3ccc(COc4ccccc4Br)cc3)cc2)n1
-10.5%	COc1ccc(NS(=O)(=O)c2cc(NC(=O)c3ccc(=O)[nH]n3)ccc2C)cc1
-2.1%	FC(F)Oc1ccccc1/C=N/Nc1nc2ccccc2o1

Additional structures follow:
VDR inh	compound
-16.0%	COc1cc(/C=C/C(=O)OCC(=O)c2c(N)n(C)c(=O)n(C)c2=O)ccc1OCC#N
-7.8%	O=C(CSc1nnc(-c2ccncc2)n1CC1CCCO1)Nc1cccc(O)c1 (centres undefined)
0.8%	Cc1ccc(C(=O)Nc2ccc(F)cc2)o1
-1.0%	COc1ccc(CCNC(=O)c2cc(-c3ccccc3O)n[nH]2)cc1OC
-8.4%	O=C(O)[C@H](Cc1c[nH]c2ccccc12)N1C(=O)C2=CCCC=C2C1=O
12.4%	Cc1nn(C(=O)c2nn(C)cc2[N+](=O)[O-])c(C)c1Br
12.5%	CC1CCCCN1CCCNC(=O)c1sc2ncccc2c1-n1cccc1 (centres undefined)
13.7%	CC(C)(C)c1ccc(NC(=O)COc2ccc(-n3ccnc3)cc2)cc1
-2.0%	CCN1CCN(CCCNC(=O)CNC(=O)c2nn(-c3ccc(OC)cc3OC)c(=O)c3ccccc23)CC1
-9.9%	O=C(Nc1ccc(OC(F)F)cc1)Nc1cccc(C(F)(F)F)c1
-11.2%	CCOC(=O)Cc1[nH]nc2c1C(c1cccc(OC)c1OC)C(C#N)=C(N)O2 (centres undefined)
2.2%	Cc1cn2c(nc(=O)c3cccnc32)s1
9.3%	Cc1cc(C)c(S(=O)(=O)NCCn2c(C)cc3ccccc32)c(C)c1
3.5%	COC(=O)c1ccccc1NS(=O)(=O)c1c(C)noc1C
24.8%	COc1ccc(OC)c(NC2c3ccccc3C(=O)N2c2cccnc2)c1 (centres undefined)
-6.6%	O=C(N/N=C/c1sc(N2CCCCC2)nc1-c1cccs1)c1cccnc1
9.0%	CNC[C@H](O)c1ccc(OC(=O)C(C)(C)C)c(OC(=O)C(C)(C)C)c1
0.7%	COc1ccc(N(CC(=O)Nc2c(C)n(C)n(-c3ccccc3)c2=O)S(=O)(=O)c2ccccc2)cc1OC
-14.2%	Cc1ccccc1-c1noc(CCC(=O)NCCc2ccccc2)n1
-10.1%	O=C(Cn1c(=O)oc2cc(S(=O)(=O)N3CCCC3)ccc21)N1CCc2ccccc2C1
0.4%	COc1cc(CN2CCC(C(=O)NC3CCCC3)CC2)ccc1O
-1.6%	C#CCOC(=O)Nc1ccc(=O)n(Cc2c(Cl)cccc2Cl)c1
-10.0%	CCCCNC(=O)c1cc2nc(-c3ccccc3)cc(C(F)(F)F)n2n1
4.0%	COc1ccccc1CNC(=O)C1CCN(S(=O)(=O)N2CC(C)CC(C)C2)CC1 (centres undefined)
6.5%	O=C(NCCOc1ccccc1)O[C@@H]1C(=O)c2cc(Br)ccc2O[C@H]1c1ccc2c(c1)OCO2
-18.0%	CC1CCCC(NC(=O)Cn2c(Cl)nc3c2c(=O)n(C)c(=O)n3C)C1C (centres undefined)
-7.9%	C[C@H](CO)N1C[C@H](C)[C@@H](CN(C)Cc2ccccc2)Oc2c(NC(=O)c3ccncc3)cccc2C1=O
-3.4%	Oc1ccc(N=Nc2nccs2)c(O)c1
4.6%	Cc1ccc(NC(=O)c2cc3c(CO)cnc(C)c3oc2=Nc2cccc(C(N)=O)c2)cc1
-0.2%	O=C(Nc1cccc(S(=O)(=O)N2CCCCC2)c1)c1ccc(OCC2CCCO2)cc1 (centres undefined)
-3.6%	CC(C)Oc1ccc(C(=O)Nc2ccccc2N2CCOCC2)cc1
-10.5%	COc1ccc(-c2c(C)c3cc(O)ccc3oc2=O)cc1OC
-11.1%	C(=N\N1CCN(Cc2cccc3ccccc23)CC1)/c1ccco1
